Compound activity deposited in PubChem by several laboratories.
ugtP null kill: growth inhibition of S. aureus ugtP deletion strain; actives 0.54% (n = 330,000); AID 1259309; growth inhibition, % (no concentration beside the values); S. aureus RN4220 ugtP deletion, OD600 growth, 16 h; some inactives read as strong as hits;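 active = z-score under -3 and OD600 up to 0.15 on both plates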;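 note: plate controls were untreated wells for no effect and antibiotic for full effect; wells of about 80 µL received 100 nL stock; the first replicate is given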
Mtb hypoxia rep: inhibitors of hypoxia-regulated fluorescent reporter in Mycobacterium tuberculosis; M. tuberculosis hypoxia-regulated fluorescent reporter, fluorescence; fluorescence inhibition, % (test concentration not listed); actives 0.1% (n = 300,000);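 active = 35 to 45% if threefold the growth effect, above 45% if 1.5-fold the growth effect; inactive = the rest, general growth blockers included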;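 note: wells of about 50 µL received 100 nL stock; 0% = vehicle wells and 100% = reference inhibitor wells; whole bacteria with a GFP reporter of the hypoxia response; strong numbers were not always called active; many hits fall short of the cut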
Bead autofluor: flagged as autofluorescent in microsphere protease counterscreen. compound autofluorescence counterscreen, microsphere flow cytometry; active compounds read high. actives 3.1% (n = 360,000). fluorescence intensity (concentration not given with the values). AID 624483;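 active = at least 3 SD above the mean of all compounds, about 16000 in these data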;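 note: 100 nL of 1 mM stock went into each well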
RN4220 kill: kills Staphylococcus aureus RN4220 | S. aureus RN4220 growth, OD600, 16 h | inhibition, % (no concentration beside the values) | actives 0.33% (n = 330,000);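 active = z-score of -3 or lower and OD600 up to 0.18 on both plates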;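 note: plate controls were untreated cells for no effect and reference antibiotic for full effect; stock transfer was 100 nL into about 80 µL; one replicate is shown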
PrP 5UTR inh: suppresses PrP 5' UTR mRNA reporter expression; inhibition, % (concentration not given with the values); actives 0.35% (n = 340,000); cell-based PrP 5' UTR mRNA reporter, plate reader; AID 488862;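 active = every replicate at 50% or more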;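 note: 0 = median of the neutral control wells; tested in H4 reporter cells; numbers are from one replicate; inactives centre near -14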
BJeLR lethal: kills HRASV12-expressing BJeLR cells. BJeLR (HRASV12) viability, CellTiter-Glo ATP luminescence, 48 h; reference of the scale not given here. inhibition, % (test concentration not listed). actives 0.17% (n = 300,000);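 active = replicate mean above 50%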;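 note: 50 nL library stock added to about 25 µL; numbers are from one replicate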
Mtb hypoxia rep growth: second read-out of Mtb hypoxia rep, no call of its own (marks repeat the call); growth inhibition, %; measured here: M. tuberculosis growth (absorbance);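 0% = vehicle and 100% = reference antibiotic; read after six days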
Active calls of the source: *; / = not tested or not shown. Not a hit list; about 4% have a hit in one of these screens.

Order of results – ugtP null kill | Mtb hypoxia rep | Mtb hypoxia rep growth | Bead autofluor | RN4220 kill | PrP 5UTR inh | BJeLR lethal
COc1cc(NS(=O)(=O)c2ccc(NC(=S)NC(=O)COc3ccccc3OC)cc2)nc(OC)n1
    -10 | -8 | 11 | 4317 | -1.4 | -21 | -3
OCCCn1c(C2CCCN2c2nc(-c3ccc(F)cc3)cs2)nc2cc(C(F)(F)F)ccc21 (stereo not given)
    -2 | 15 | 2 | 3774 | -18 | -16 | -10
O=C(c1ccc(CS(=O)(=O)c2ccc(Br)cc2)o1)N1CCC2(CC1)OCCO2
    9 | 10 | 14 | 15690 | 6.3 | -14 | -1
Cc1nc2ccc(NC(=O)NC(=O)c3c(Cl)cccc3Cl)cc2o1
    1 | -1 | 8 | 6170 | 0.4 | -24 | -9
OC(CCN1CCC2(CC1)OCCO2)C(F)(F)F (stereo not given)
    18 | 8 | 4 | 3064 | 2.7 | -5 | -4
FC(F)(F)c1ccccc1C=NNc1ccccn1
    -3 | -6 | -7 | / | -6.5 | / | /
CCN(CC)S(=O)(=O)c1ccc2[nH]cc(C(=O)NCCc3ccc(OC)c(OC)c3)c(=O)c2c1
    2 | -2 | 4 | 3279 | 18 | -14 | -15
Cc1cc(C(=O)N2CCCC(C(=O)c3cc(F)ccc3F)C2)c(C)o1 (stereo not given)
    5 | 7 | -2 | 4080 | 1.9 | -33 | -5
CCn1c(O)c(C=NN=C2CCCCC2)c2cc(C3=NNC(=O)CC3)ccc21
    4 | 8 | -1 | / | 2.4 | / | /
Cc1c(Cl)cccc1NC(=S)NCC(C)C
    4 | -7 | 4 | 2239 | 1.4 | -15 | -1
CC1CCC(C(C)C)C(OC(=O)COC(=O)c2ccccc2N)C1 (stereo not given)
    94* | 7 | 3 | 7195 | -1.1 | -43 | -10
O=C(COc1ccc(C(=O)c2ccc(F)cc2)cc1)NCc1ccc(F)cc1
    0 | 0 | 3 | 2082 | -2.6 | -28 | 6
CN(Cc1ccccc1)C(=O)COC(=O)C12CC3CC(CC(Br)(C3)C1)C2
    2 | -2 | 6 | 3388 | 2.5 | -7 | /
Cc1ccccc1NC(=O)Cc1nc(COC(=O)CCC(=O)c2ccccc2)cs1
    3 | 4 | -1 | 3691 | 0.7 | -15 | /
COC(=O)c1ccc(/C=N\N2CCN(Cc3ccc(C)cc3)CC2)cc1
    / | / | / | 16594* | / | -20 | 2
COc1ccc(CCNC(=O)CCN2C(=O)COc3ccccc32)cc1OC
    10 | 5 | -1 | 11077 | 4.4 | -18 | -2
Cc1ccc(NC(=O)CN2C(=O)S/C(=C\c3cccn3-c3cccc(C(=O)O)c3)C2=O)cc1C
    / | / | / | 4182 | / | -16 | 0
O=C(CN1CCN(S(=O)(=O)c2ccc(F)c(Cl)c2)CC1)N1CCc2ccccc21
    2 | 14 | 6 | 3582 | 4.1 | -7 | /
O=C(Nc1ccc(CN2CCOCC2)cc1)c1ccc2ccccc2c1
    4 | -2 | -4 | 4504 | 1.9 | -69 | -1
COc1ccc(C(=O)COC(=O)CN2CC(=O)Oc3ccccc32)cc1Br
    0 | / | / | 4184 | 3.4 | -5 | /
CC(C)(C)NC(=O)C(c1ccc(Cl)cc1)N(CCO)C(=O)c1snc(C(N)=O)c1N (stereo not given)
    2 | 14 | 6 | 3451 | 5.0 | -31 | -3
Cc1nonc1NC(=O)CSc1nc2cc(Cl)ccc2c2c1CCCC2
    -31 | 3 | 0 | 10977 | 2.1 | -23 | 4
C=C(C)CNC(=S)N/N=C/c1ccc(NC(C)=O)cc1
    / | / | / | 4527 | / | -18 | 3
Clc1nn2cnnc2c2ccccc12
    5 | 6 | 2 | 4110 | 7.0 | -20 | 2
COc1ccccc1CNC(=O)COC(=O)/C=C/c1ccc2c(c1)OCO2
    1 | 7 | 8 | 3802 | 3.8 | -20 | /
COCCn1c(SCC(=O)NCc2ccc3c(c2)OCO3)nc2ccccc2c1=O
    2 | 2 | 4 | 3221 | 2.5 | -31 | 6
COc1ccc(C=NNC(=O)Cn2cnc3ccccc3c2=O)cc1
    2 | 7 | 2 | / | 2.9 | / | /
CC(NC(=S)Nc1ccc(Cl)cc1)C(c1ccccc1)N1CCOCC1 (stereo not given)
    -2 | 10 | -2 | 2541 | 4.7 | -4 | -7
Cc1c(C(=O)N2CCCC2)sc(NC(=O)c2cccs2)c1C#N
    2 | 3 | 6 | 10250 | 7.6 | -30 | 5
N=c1c(C(=O)NCc2ccco2)cc2c(=O)n3ccccc3nc2n1C1CCCC1
    -1 | 10 | 2 | 3233 | -0.3 | -2 | -4
CCn1nc(NC(=O)C(C)C)c2cc3cccc(C)c3nc21
    -6 | 0 | -2 | 3626 | -0.1 | -14 | -3
CN1CCN(N=Cc2c3ccccc3c(Cl)c3ccccc23)CC1
    -16 | 6 | 15 | / | 61 | / | /
CCN(CC(=O)NCc1ccncc1)S(=O)(=O)c1cc(Cl)ccc1Cl
    9 | 5 | 3 | 3729 | 2.0 | 11 | -1
NS(=O)(=O)c1ccc(NC(=O)c2ccc(S(=O)(=O)N3CCCCC3)cc2)cc1
    0 | 0 | 1 | 3697 | 4.0 | 0 | /
O=C(CSc1nnc(-c2ccc(Cl)cc2Cl)n1C1CCCCC1)NC1CCS(=O)(=O)C1 (stereo not given)
    9 | 12 | -1 | 4351 | 2.9 | -1 | -17
CCc1nnc2n1N=C(c1ccc(Cl)cc1Cl)CS2
    2 | -13 | 4 | 5160 | 7.4 | -19 | -12
CCOc1ccc(-n2c(O)c(/C=N/Nc3nc(C)cc(C)n3)c3ccccc3c2=O)cc1
    -1 | 5 | 5 | 4557 | 0.6 | 11 | /
CCn1c(CNc2ccc(F)cc2)nnc1SCCN1CCCCC1
    1 | 7 | 1 | 9832 | 1.0 | -3 | -3
CCOc1ccc(NC(=O)CCC(=O)NNC(=O)c2ccco2)cc1
    10 | -10 | -2 | 4650 | 4.0 | 2 | 3
O=C(NCCCn1ccnc1)c1cc2ccccc2oc1=O
    / | / | / | 4587 | / | -10 | 1

Copied from the entries so far, 2 compounds:
Order of results – ugtP null kill | Mtb hypoxia rep | Mtb hypoxia rep growth | Bead autofluor | RN4220 kill | PrP 5UTR inh | BJeLR lethal
CCOc1ccc(NC(=O)CCC(=O)NNC(=O)c2ccco2)cc1
    10 | -10 | -2 | 4650 | 4.0 | 2 | 3
O=C(NCCCn1ccnc1)c1cc2ccccc2oc1=O
    / | / | / | 4587 | / | -10 | 1

Next section.
Order of results – ugtP null kill | Mtb hypoxia rep | Mtb hypoxia rep growth | Bead autofluor | RN4220 kill | PrP 5UTR inh | BJeLR lethal
OCCc1c[nH]c2cc(F)ccc12
    / | / | / | 3540 | / | -11 | -11
COc1ccc2c(CC(=O)OCc3nc4ccsc4c(=O)[nH]3)coc2c1
    8 | 6 | 9 | 3045 | 1.8 | -21 | /
O=C(Nc1ccc(-c2nnco2)cc1)c1ccccc1
    7 | 12 | 11 | 2408 | -0.7 | -17 | -2
O=C(CCN1C(=O)COc2ccccc21)NCCCN1CCCC1
    -5 | -1 | -6 | 4259 | -1.3 | -2 | 12
O=C(CC(=O)Nc1cc(Cl)ccc1Cl)Nc1cc(Cl)ccc1Cl
    -3 | -15 | -5 | 3960 | -5.7 | -26 | 2
Cc1c(CC(=O)NCCCC(=O)O)c(=O)oc2cc3c(cc12)CCC(C)(C)O3
    13 | -5 | 6 | 3765 | 2.6 | 0 | 9
CC(=O)Nc1ccc(N=Cc2c(O)c(C(=O)Nc3ccccc3)cc3ccccc23)cc1
    3 | -6 | 5 | / | 13 | / | -4
C[C@H](NC(=O)c1nc[nH]c1C(=O)N[C@H](C)c1ccccc1)C(=O)OCc1ccccc1
    / | / | / | 3646 | / | -26 | -15
Cn1c(=O)cc(SCC(=O)NCCN2CCN(c3ccccc3F)CC2)c2cc(Cl)ccc21
    -10 | 0 | 3 | 22129* | 5.9 | -12 | 3
O=C(CCc1nnc(Cc2c[nH]c3ccccc23)o1)NC1CCCC1
    2 | 0 | 21 | 4798 | 4.6 | -2 | 0
COc1ccc(OCc2nn3c(Cn4cnc5ccccc54)nnc3s2)cc1
    5 | 4 | 0 | 16600* | 2.1 | -10 | 5
COc1cccc(CN2CCN(Cc3ccc4c(c3)OCCO4)CC2CCO)c1 (stereo not given)
    -1 | -6 | 6 | 4530 | 2.5 | -14 | 3
Cc1cc(C)c(O)c(-c2cc(C(=O)Nc3c(C)n(C)n(-c4ccccc4)c3=O)[nH]n2)c1
    -6 | -5 | 0 | 3468 | 16 | / | 4
COc1cccc(CN(C)CC(O)COc2cc(Cl)ccc2Cl)c1 (stereo not given)
    3 | 5 | 5 | 3627 | 3.8 | -27 | -5
Cc1ccc(NC(=O)CCC(=O)c2ccc(Cl)s2)nc1
    4 | 9 | 7 | 3908 | 2.7 | -36 | /
O=C(N/N=C/c1cccnc1)c1cc(-c2ccccc2Cl)nc2ccccc12
    / | / | / | 5582 | / | -22 | -2
Cc1cc(C)nc(SCSc2nc(C)cc(C)n2)n1
    16 | 10 | 5 | 11955 | 4.7 | -16 | -9
CCCCCn1c(=O)c(-c2nc3ccccc3[nH]2)c(O)c2ccccc21
    -16 | -3 | -12 | 5034 | 15 | 0 | 1
CC(C)Cc1nnc(NC(=O)CN2C(=O)NC3(CCCC3)C2=O)s1
    -1 | 2 | 0 | / | -0.3 | -17 | 5
Cc1ccc(-c2c[n+](CC(=O)Nc3c(C)cccc3C)c3n2CCC3)cc1
    -4 | 4 | 12 | / | 1.7 | / | 2
CCN(CC)C(=O)c1[nH]cnc1C(=O)NCC(=O)OC(C)(C)C
    1 | 2 | -4 | 3060 | 3.2 | -8 | 6
O=C(O)C1CCCCC1C(=O)NCCCCc1ccccc1 (stereo not given)
    6 | / | / | 3469 | 6.3 | -1 | -5
CC(C)(C)NC(=O)CSc1nnc(C2CC2)n1-c1ccccc1
    -4 | -12 | 2 | 4445 | 2.1 | -6 | 0
COC(=O)c1ccccc1Sc1c(/C=N/OCc2ccc(Cl)cc2)c(C(F)(F)F)nn1C
    / | / | / | 2906 | / | -8 | -1

In the list so far, 17 contain a Cl atom.
Order of results – ugtP null kill | Mtb hypoxia rep | Mtb hypoxia rep growth | Bead autofluor | RN4220 kill | PrP 5UTR inh | BJeLR lethal
Cc1nc2ccc(NC(=O)NC(=O)c3c(Cl)cccc3Cl)cc2o1
    1 | -1 | 8 | 6170 | 0.4 | -24 | -9
Cc1c(Cl)cccc1NC(=S)NCC(C)C
    4 | -7 | 4 | 2239 | 1.4 | -15 | -1
O=C(CN1CCN(S(=O)(=O)c2ccc(F)c(Cl)c2)CC1)N1CCc2ccccc21
    2 | 14 | 6 | 3582 | 4.1 | -7 | /
CC(C)(C)NC(=O)C(c1ccc(Cl)cc1)N(CCO)C(=O)c1snc(C(N)=O)c1N (stereo not given)
    2 | 14 | 6 | 3451 | 5.0 | -31 | -3
Cc1nonc1NC(=O)CSc1nc2cc(Cl)ccc2c2c1CCCC2
    -31 | 3 | 0 | 10977 | 2.1 | -23 | 4
Clc1nn2cnnc2c2ccccc12
    5 | 6 | 2 | 4110 | 7.0 | -20 | 2
CC(NC(=S)Nc1ccc(Cl)cc1)C(c1ccccc1)N1CCOCC1 (stereo not given)
    -2 | 10 | -2 | 2541 | 4.7 | -4 | -7
CN1CCN(N=Cc2c3ccccc3c(Cl)c3ccccc23)CC1
    -16 | 6 | 15 | / | 61 | / | /
CCN(CC(=O)NCc1ccncc1)S(=O)(=O)c1cc(Cl)ccc1Cl
    9 | 5 | 3 | 3729 | 2.0 | 11 | -1
O=C(CSc1nnc(-c2ccc(Cl)cc2Cl)n1C1CCCCC1)NC1CCS(=O)(=O)C1 (stereo not given)
    9 | 12 | -1 | 4351 | 2.9 | -1 | -17
CCc1nnc2n1N=C(c1ccc(Cl)cc1Cl)CS2
    2 | -13 | 4 | 5160 | 7.4 | -19 | -12
O=C(CC(=O)Nc1cc(Cl)ccc1Cl)Nc1cc(Cl)ccc1Cl
    -3 | -15 | -5 | 3960 | -5.7 | -26 | 2
Cn1c(=O)cc(SCC(=O)NCCN2CCN(c3ccccc3F)CC2)c2cc(Cl)ccc21
    -10 | 0 | 3 | 22129* | 5.9 | -12 | 3
COc1cccc(CN(C)CC(O)COc2cc(Cl)ccc2Cl)c1 (stereo not given)
    3 | 5 | 5 | 3627 | 3.8 | -27 | -5
Cc1ccc(NC(=O)CCC(=O)c2ccc(Cl)s2)nc1
    4 | 9 | 7 | 3908 | 2.7 | -36 | /
O=C(N/N=C/c1cccnc1)c1cc(-c2ccccc2Cl)nc2ccccc12
    / | / | / | 5582 | / | -22 | -2
COC(=O)c1ccccc1Sc1c(/C=N/OCc2ccc(Cl)cc2)c(C(F)(F)F)nn1C
    / | / | / | 2906 | / | -8 | -1
